High-throughput results deposited in PubChem BioAssay by National Center for Advancing Translational Sciences (NCATS).
SmPrx2 inh: blocks S. mansoni peroxiredoxin 2 enzymatic activity. S. mansoni Prx2 activity coupled to TGR/GSH (TGR is thioredoxin glutathione reductase), NADPH fluorescence loss, qHTS; some inactives read as strong as hits. Potency, µM. 65,000 compounds, 0.07% hits. AID 448; active means full or partial inhibition curve with a strong effect at the top dose; inconclusive means weaker partial or single-point curve; inactive means no accepted curve; note: series up to 57 µM; many of its hits are not listed in these tables
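Activity is read as the drop in NADPH fluorescence (365/450 nm), recorded every 30 sec for 8 min after H2O2 addition. Prx2 is coupled to TGR-driven NADPH oxidation through glutathione, in phosphate buffer pH 7.4.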
Anthrax LT inh: blocks cellular internalization of anthrax lethal toxin; Cells, anthrax lethal toxin internalization, FRET ratio (460/530); Potency, µM (doses to about 40 µM), inactives show at the top dose activity change, negative = inhibition, actives largely listed as inhibitors; 70,000 compounds, 0.67% hits; active = well fitted falling ratio curve with the 530 nm signal flat; inconclusive = other ratio curves, or a change in one channel alone; inactive = flat curves in the ratio and both channels; the % refers to the ratio; note: % is set by controls: 0 for no effect and ±100 for the full control effect; nearly all actives have a fitted effect of over 50% in size; tested in ME-180 cells; beta-lactamase reporter
The depositor's hits bear a star; ? = inconclusive; · = not tested or not shown; [ ] = dose if it differs, or a comment. Potency is the fitted concentration of half-maximal effect.

SMILES	SmPrx2 inh	Anthrax LT inh
NC(=O)C1CCN(CC(=O)Nc2ccccn2)CC1	>57	?
COc1ccc(C2=CC(=O)OC3(CCCCC3)O2)cc1	>57	9.2%
COc1ccc(C(CNC(=O)c2cccc(N(C)C)c2)N2CCCC2)cc1 (stereo not given)	>57	-25.6%
C=CCN1C2CCCC1CC(NC(=O)Nc1cccc(C(C)=O)c1)C2 (stereo not given)	>57	-12.2%
CCOC(=O)c1c(C)nc2c3ccccc3ccn12	>57	?
Cc1ccc(S(=O)(=O)Nc2nsc(N)n2)cc1	·	?
COc1ccc(NC(=O)N2CCCC3(CCN(S(=O)(=O)c4ccccc4)CC3)C2)cc1	>57	?
CCOC(=O)C1=C(CSc2nncn2C)NC(=O)NC1c1cc(OCC)ccc1OCC (stereo not given)	>57	9.7%
CCNc1ncc2nc(-c3cn(C)c4ccccc34)c(=O)n(C[C@H]3CCCO3)c2n1	>57	?
O=S(=O)(NCC1CCCO1)c1ccc(S(=O)(=O)N2CCc3ccccc3C2)cc1 (stereo not given)	>57	5.5%
COc1ccc(-c2nc3cnc(N4CCOCC4)nc3n(Cc3cccc(OC)c3)c2=O)cc1	>57	?
CCN(CC)S(=O)(=O)c1ccc(Nc2nc3ccccc3n3nnnc23)cc1	>57	-12.2%
COc1ccc(C2C(C(=O)OCC(=O)N3CCCCC3)CCC(=O)N2c2ccc(OC)cc2)cc1 (stereo not given)	>57	0.7%
Cc1ccc(C(=O)Nc2ccc(O)c(C(=O)O)c2)o1	>57	-28.7%
CS(=O)(=O)NC1CCN(Cc2ccccc2)CC1	>57	-4.9%
O=C(CSc1ccc2c(c1)OCCO2)NCC1CCCO1 (stereo not given)	>57	-0.6%
CCc1ccccc1OCC(=O)NC1CCCC1	>57	·
COc1c2c(cc3c1OCO3)CCN(C)C2	>57	3.2%[3.58 µM]
CCc1nc2ccccc2c(C(=O)OC2CCOC2=O)c1C (stereo not given)	>57	9.3%
CCOC(=O)C1CCN(C(=O)Cn2cc(C(=O)c3ccco3)c3ccccc32)CC1	>57	14.2%
O=c1c2cc3c(cc2[nH]c(=S)n1CCN1CCOCC1)OCO3	>57	?
Cc1ccc(-c2nc(C3CCN(S(C)(=O)=O)CC3)no2)cc1	>57	15.7%
COc1cc2c(cc1NC(=O)CN(C)Cc1nc3ccccc3c(=O)[nH]1)oc1ccccc12	>57	1.9%
O=C1C=C(NCCc2cc(Br)c(O)c(Br)c2)C(=O)c2ncccc21	>57	?
Cc1ccc(CN2C(=O)CSc3ccc(C(=O)NCCN4CCOCC4)cc32)cc1	>57	2.4%

Continuation.
SMILES	SmPrx2 inh	Anthrax LT inh
CCOCCOCN(C#N)c1nc(OC)nc(N(C)C)n1	>57	-12.2%
Cc1ccc(N(C(=O)C2CCCC2)C2C=CS(=O)(=O)C2)cc1 (stereo not given)	>57	-0.6%
CCOC(=O)C1=C(C)OC(N)=C(C#N)C1c1c(C)nn(-c2ccccc2)c1Cl (stereo not given)	>57	-2.4%
CCCCOc1ccc(S(=O)(=O)NCc2csc(C)n2)cc1	>57	-17.5%
O=C(Nc1ccncc1)c1cccc(F)c1	·	1.0%
Ic1ccccc1CN[C@@H]1C2CCN(CC2)[C@H]1C(c1ccccc1)c1ccccc1	>57	15.8µM*
Cc1ccccc1C(=O)c1cccn1CC(=O)NCC1CCCO1 (stereo not given)	>57	-0.8%
CC1=C(C(=O)OCc2ccccc2)C(c2ccc(C(C)(C)C)cc2)NC(=O)N1CCCCCC(=O)O (stereo not given)	·	11.7%
COc1ccc2[nH]c(=O)c(C(c3nnnn3C3CCCCC3)N3CCN(C)CC3)cc2c1 (stereo not given)	>57	2.3%
O=C(c1ccncc1)N1CCC2(CC1)CCN(c1ccccn1)CC2	>57	-8.1%
CCCc1[nH]nc2c1C(c1ccc(OC)c(Cn3nc(C)c(Br)c3C)c1)C(C#N)=C(N)O2 (stereo not given)	>57	-20.7%
COc1ccc(NC(=O)CC(NCCc2ccccc2)C(=O)O)c(OC)c1 (stereo not given)	>57	7.6%
CC1(C)CCC(=O)N[C@H]1CC(=O)C[C@H]1NC(=O)CCC1(C)C	>57	4.8%[8 µM]
CCC1CCCCN1Cc1nc2c(c(=O)n(C)c(=O)n2C)n1Cc1cccc2ccccc12 (stereo not given)	>57	9.5%
CCOc1ccc2nc(NC(=O)C3CCN(S(=O)(=O)c4cnc[nH]4)CC3)sc2c1	>57	-10.2%
Cc1cc(C)n2c(SCc3cccs3)nnc2n1	>57	0.1%
COc1ccc(Br)cc1/C=c1\sc2nc(-c3ccco3)nn2c1=O	>57	?
Clc1ccccc1-c1nnn(Cc2ccc(-c3nn[nH]n3)cc2)n1	>57	5.6%
CC1(C)CC(=O)C(CC(=O)Nc2ccc(S(N)(=O)=O)cc2)=C(O)C1	>57	-3.9%
O=C(CSCC(=O)NCc1ccco1)NCc1ccco1	>57	?
Cc1noc(C)c1COC(=O)c1ccccc1NC(=O)Cc1ccccc1	>57	3.2%
C1=C(c2ccc(-c3ccccc3)cc2)Nc2ncnn2C1c1ccco1 (stereo not given)	>57	?
COCCN(C(=O)CNC(=O)c1cccs1)C(C(=O)NC1CCCC1)c1cccs1 (stereo not given)	>57	-4.6%
CCOC(=O)N1CCC(NC(=O)CCc2c(C)nc3nc(C)nn3c2C)CC1	>57	3.2%
CCCOc1ccc(NC(=O)C2CC(=O)N3CCCN=C3S2)cc1 (stereo not given)	>57	?

Continuation:
SMILES	SmPrx2 inh	Anthrax LT inh
CCCOc1cc(C)c(S(=O)(=O)NCCOC)cc1C	>57	?
Cc1ccccc1S(=O)(=O)Cc1ccc(C(=O)NCc2cccnc2)o1	>57	-0.9%
CCn1c(CSc2nncn2-c2ccc(OC)cc2)nc2cc(S(=O)(=O)N(C)C)ccc21	>57	-0.3%
Cc1ccc(NC(=O)CSc2nc3nc(C)cc(C)c3c(=O)[nH]2)cc1	>57	3.2%
O=C(c1csc2c1CCCCC2)N1CCN(c2ncccn2)CC1	>57	6.2%
O=C(Nc1ccccc1)C1=C(N2CCOCC2)/C(=C/c2cccnc2)CC1	·	10.5%
Cc1cc(C(=O)CSc2nc3ccc(Cl)cc3[nH]2)c(C)n1C	>57	-22.0%
CCCOc1ccc2[nH]cc(C3=CCNCC3)c2n1	>57	?
CCCC(=O)NC1C2CC3CC(C2)CC1C3 (stereo not given)	>57	0.3%
COCCNC(=O)C(c1ccc(Cl)cc1)N(C(=O)CCC(=O)Nc1ccccn1)C1CCCC1 (stereo not given)	>57	-3.9%
CC(C)N1C(=O)c2ccc(C(=O)O)cc2C1=O	>57	?
CC(C)N(Cc1nc(-c2ccc(Cl)cc2)no1)C(=O)CN(C)S(=O)(=O)c1ccc(Cl)cc1	>57	1.1%
CCN(CC)Cc1cc(Nc2ccnc3cc(Cl)ccc23)ccc1O	>57	?
Cc1nc2cc(C(=O)OCC(=O)N(CC(C)C)C3CCS(=O)(=O)C3)ccc2n1-c1ccccc1 (stereo not given)	>57	?
O=C1CC(c2cccc(Cl)c2)Cc2nc(N3CCN(c4ccccc4)CC3)ncc21 (stereo not given)	>57	-0.3%
COc1ccccc1NC(=O)c1oc2ccccc2c1NC(=O)c1cc(OC)c(OC)c(OC)c1	>57	-14.5%
Cc1nccc2[nH]c(=O)c(C(=O)NC3CCCCC3C)cc12 (stereo not given)	>57	2.3%
COCCNC(=O)C1c2cc(OC)c(OC)cc2C(=O)N(C)C1c1cccnc1 (stereo not given)	>57	1.1%
COCCCN1C(=O)C(=O)/C(=C(/O)c2ccc(OC(C)C)c(C)c2)C1c1ccncc1 (stereo not given)	>57	-8.6%
O=C(NC12CC3CC(CC(C3)C1)C2)c1cccnc1	>57	10.0%
Cc1cccc(S(=O)(=O)c2c(N)n(/N=C/c3cccnc3)c3nc4ccccc4nc23)c1	>57	13.6%
Clc1cccc(-c2nn3c(Cn4cnc5ccccc54)nnc3s2)c1	>57	?
COc1cc(C2C(C#N)=C(N)Oc3cc(C)oc(=O)c32)cc2c1OCO2 (stereo not given)	>57	?
COC(=O)c1ccc(S(=O)(=O)N2CCCCCC2)cc1	>57	-0.1%
CC(C)=CCC/C(C)=C/CO/N=C1/[C@H]2O[C@@H]2[C@@H](O)[C@H]2[C@H]1CCn1c(=O)n(-c3ccccc3)c(=O)n12	·	-13.8%[8 µM]

Next section
SMILES	SmPrx2 inh	Anthrax LT inh
O=C(Oc1cccc2c(O)cccc12)c1ccccc1	>57	6.8%
COc1cc2c(cc1OC)CN(C(=O)NS(=O)(=O)c1ccc(C)cc1)CC2	>57	-0.4%
Cn1nc(CC(=O)Nc2cccnc2N2CCOCC2)c2ccccc2c1=O	>57	-3.3%
CCOC(=O)NC1(NCc2ccccc2)Oc2ccccc2O1	>57	2.3%
O=C(O)C1CCCCC1C(=O)Nc1ccc(Cl)cc1Cl (stereo not given)	>57	0.0%
CCOC(=O)c1cc(-c2cc3ccccc3o2)nc2c1c(=O)[nH]c(=O)n2CCOC	>57	-1.4%
CCCNC(=O)Cn1cnc2sc(C(=O)NCCN(CC)CC)c(C)c2c1=O	>57	-4.4%
N#CC(C(=O)c1ccco1)c1ccccn1 (stereo not given)	>57	3.5%
CCCC(=O)Nc1ccc(NC(=O)c2ccco2)c(OC)c1	>57	12.3%
Cc1ccc(C(=O)C2=C(O)C(=O)N(Cc3ccccc3)C2c2cccnc2)o1 (stereo not given)	>57	·
COC(=O)c1ccc(Nc2nc(C)cc(=O)[nH]2)cc1	>57	?
O=C(c1cnccn1)N1CCC2(CC1)CCN(c1ccccc1)CC2	>57	17.8%
Cc1ccccc1NC(=O)CSc1nnc(-c2ccoc2C)n1CCc1ccccc1	>57	-17.0%
COc1ccc(CCNS(=O)(=O)c2ccc3c(c2)CCN3C(=O)C2CC2)cc1OC	>57	-11.4%
O=C(Nc1nc(-c2ccc(Cl)s2)cs1)c1ccncc1	>57	-15.9%
Cc1nc(NC(=O)CSc2nc3cccnc3n2Cc2ccccc2)sc1C	>57	12.4%
CCN(CCCNC(=O)CC(C(=O)N1CCc2ccccc21)n1ccnc1)c1ccccc1 (stereo not given)	>57	?
Cn1c(=N)c(S(=O)(=O)c2ccc(F)cc2)cc2c(=O)n3ccccc3nc21	>57	-3.0%
CS(=O)(=O)Nc1cccc(-c2cncnc2-n2ccnc2)c1	>57	-7.4%
O=C(NCc1ccco1)c1ccc(CS(=O)(=O)Cc2ccc(F)cc2)o1	>57	-8.8%
O=C(c1cnn2c(C(F)(F)F)cc(-c3ccc4c(c3)OCO4)nc12)N1CCCCC1	>57	-7.0%
CCCCOC(=O)CSc1nc2c(c(=O)[nH]c(=O)n2C)n1C/C=C(\C)Cl	>57	-8.9%
c1ccc(CCN2CCOCC2)nc1	>57	?
O=C1CC(N2CCC(O)CC2)C(=O)N1c1ccc(Br)cc1 (stereo not given)	·	-4.2%
O=C(NCC1CCCO1)c1cc2n(n1)C(C(F)(F)F)CC(c1ccc(F)cc1)N2 (stereo not given)	>57	3.6%

Next section:
SMILES	SmPrx2 inh	Anthrax LT inh
Oc1ccc(Cl)cc1/C=N/c1nc2ccccc2[nH]1	>57	2.4%
O=C(Cn1ccc2ccccc2c1=O)NCCC(=O)N1CCN(C2CCCCC2)CC1	>57	-15.9%
CC1(C)c2ccccc2N2CC(=O)N(CC(N)=O)C21C (stereo not given)	>57	-9.5%
COc1ccc(C(=O)NCc2nnc(SCC(=O)N3CCCCC3)o2)cc1OC	>57	-12.2%
COc1cccc(S(=O)(=O)Nc2ccc(C(=O)N3CCN(C(=O)c4ccco4)CC3)cc2)c1	>57	-2.9%
O=C(c1oc(=O)c2ccccc2c1-c1ccccc1)N1CCOCC1	>57	10.9%
O=C(NCCCN1CCCC1=O)Nc1ccc(Cl)cc1	>57	-6.2%
COc1ccc(C2(O)CCN(CC(=O)Nc3nccs3)CC2)c(OC)c1	>57	-1.8%
O=C(NCCc1ccccc1)c1ncn[nH]1	>57	·
N=c1n(Cc2ccccc2)c2ccccc2n1CC(O)c1ccccc1 (stereo not given)	>57	-19.3%

Not all compounds are listed; rates above refer to the full screens.
